Screening data (PubChem)
HNF4A DNA FP = change in binding of human HNF4A to DNA, primary screen, biochemical, fluorescence polarization, FITC-DNA. Hepatocyte nuclear factor 4-alpha (Homo sapiens), P41235. 1 h. activity change, % at 10 µM. hit rate 0.3% among 360,000. AID 1224865, 2016; in the data active means activity change above about 30%, passing the limit was not always enough;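 further: controls were the assay level and a saturating level of protein; the project sought stronger binding though the title names inhibitors; some compounds called inactive have numbers as strong as hits; positive values seem to mean higher polarization but the record does not say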
UCH37 inh = inhibitors of human UCH37 deubiquitinase, primary screen, biochemical, Ub-AMC cleavage, fluorescence | purified proteasome/UCH37 | inhibition, % (test concentration not listed) | hit rate 0.33% among 330,000 | Ubiquitin carboxyl-terminal hydrolase isozyme L5 (Homo sapiens), Q9Y5K5;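 active means mean of two replicates above 20%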;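 further: 0% = compound-free wells with enzyme and 100% = wells lacking proteasome; stock transfer was 100 nL into about 20 µL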
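Assay system: Proteasome-bound UCH37. Buffer or medium: pH 7.4 Tris-HCl (50 mM) with ovalbumin, ATP-MgCl2, DTT. Incubation: 30 min preincubation with enzyme, 25 min cleavage at room temperature. Measured by: fluorescence, ex 355 nm, em 460 nm. Read-out basis: percent inhibition. Control set: wells without proteasome as full block, compound-free enzyme plus substrate as uninhibited.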
Beta2AR agonist = beta2AR agonists driving receptor internalization, primary screen, cell-based, FAP fluorogen, flow cytometry | hit rate 0.43% among 340,000 | Am2.2-beta2AR cells; reference of the scale not given here | AID 504454, 2011 | Beta-2 adrenergic receptor (Homo sapiens), P07550 | response, % (concentration not given with the values);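 active means response above a set limit, near 3 SD of response in nonfluorescent compounds, cut at about 42% in these data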;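 further: stock transfer was 100 nL into about 11 µL; a reference agonist was the positive control; negative values mostly stem from fluorescent compounds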
Bfl-1 A1 inh = caspase 3/7 activation in MEF A1-2A-BIM cells, primary screen, A1 inhibitor project, cell-based, luminescence, HTS; Caspase-Glo 3/7 luminescence, 3 h; percent of clofoctol response, vehicle zero; caspase activation, % (concentration not given with the values); hit rate 0.066% among 330,000;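 active means over half of replicate activation scores above 10%, or exactly half above 10 with the replicate mean above 10; inconclusive means replicate mean below 10 yet half the replicates above 10; inactive means over half of replicates below 10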;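 further: wells of about 30 µL received 50 nL stock; many hits fall short of the cut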
LANA-H2A inh = blockers of LANA interaction with H2A/H2B – biochemical, FP readout, HTS, primary screen; Protein LANA1 (Human herpesvirus 8 type P (isolate GK18)), Q9QR71; cell-free LANA-H2A/H2B peptide, fluorescence polarization; inhibition, % (concentration not given with the values); hit rate 0.6% among 320,000; in the data active means inhibition mostly above about 10%, no sharp cut-off; inactive means mostly below about 6.7%;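 further: stock transfer was 7.5 nL into about 10 µL; 0% = median of vehicle wells and 100% = median of positive control wells; one replicate is shown; the record names a cut of 25% in any replicate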
Target sequence (Q9QR71 whole entry, looked up): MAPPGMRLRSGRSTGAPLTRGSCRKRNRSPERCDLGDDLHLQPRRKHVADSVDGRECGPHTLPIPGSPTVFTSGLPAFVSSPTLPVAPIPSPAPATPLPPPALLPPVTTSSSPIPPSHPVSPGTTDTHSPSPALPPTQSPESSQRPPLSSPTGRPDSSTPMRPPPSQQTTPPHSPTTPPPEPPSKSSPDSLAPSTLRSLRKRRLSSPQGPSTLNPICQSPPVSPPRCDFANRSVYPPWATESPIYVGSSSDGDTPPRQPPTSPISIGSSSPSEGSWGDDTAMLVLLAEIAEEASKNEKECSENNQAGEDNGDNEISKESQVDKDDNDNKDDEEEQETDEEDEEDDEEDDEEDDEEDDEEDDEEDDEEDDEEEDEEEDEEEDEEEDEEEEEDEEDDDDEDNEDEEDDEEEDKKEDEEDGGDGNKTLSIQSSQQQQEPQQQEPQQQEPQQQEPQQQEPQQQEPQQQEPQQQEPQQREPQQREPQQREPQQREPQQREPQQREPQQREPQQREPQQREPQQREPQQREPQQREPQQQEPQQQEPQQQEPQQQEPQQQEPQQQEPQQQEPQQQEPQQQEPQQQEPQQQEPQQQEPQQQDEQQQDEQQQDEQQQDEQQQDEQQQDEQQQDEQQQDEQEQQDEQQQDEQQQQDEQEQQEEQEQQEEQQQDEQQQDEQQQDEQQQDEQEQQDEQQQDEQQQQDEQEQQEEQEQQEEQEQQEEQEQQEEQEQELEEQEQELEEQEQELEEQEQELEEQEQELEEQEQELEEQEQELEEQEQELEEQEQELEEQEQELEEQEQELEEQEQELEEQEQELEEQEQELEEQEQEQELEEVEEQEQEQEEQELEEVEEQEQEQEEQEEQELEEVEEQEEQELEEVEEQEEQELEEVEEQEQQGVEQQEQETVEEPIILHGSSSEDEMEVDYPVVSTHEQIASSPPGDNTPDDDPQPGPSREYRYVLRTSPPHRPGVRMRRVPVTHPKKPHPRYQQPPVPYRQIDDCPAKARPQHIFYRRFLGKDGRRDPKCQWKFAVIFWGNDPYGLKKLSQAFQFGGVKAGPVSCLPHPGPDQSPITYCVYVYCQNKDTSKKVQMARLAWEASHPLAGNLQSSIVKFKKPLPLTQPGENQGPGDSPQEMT
E coli growth = E. coli growth inhibition, primary screen, OD600; Escherichia coli growth, 23 h; stronger effect = lower value; OD600 absorbance (no concentration beside the values); hit rate 0.21% among 330,000; AID 1053175, 2014;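 active means OD600 absorbance below the run mean of sample wells minus 3.6 SD, in any replicate, cut at about 0.56 in these data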;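 further: stock transfer was 300 nL into about 60 µL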
Vif A3G = inhibitors of Vif binding to APOBEC3G peptide, primary screen, biochemical, TR-FRET, GST-Vif 1-94, biotin-A3G peptide, dose response retest (AID 1117319); hit rate 0.57% among 260,000; Virion infectivity factor (Human immunodeficiency virus type 1 group M subtype B (isolate …; TR-FRET GST-Vif / biotin-A3G peptide binding; higher % means a stronger effect; test concentration not given here; strong numbers were not always called active; inhibition, %; hits with a dose series show IC50 in µM;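 active means above the screen mean plus three standard deviations and confirmed in dose response; inconclusive means results disagree or hit not tested in dose response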;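 further: Vif residues 1-94 fused to GST binding biotinylated APOBEC3G peptide 110-148; 0% = full assay without inhibitor and 100% = GST in place of GST-Vif; retest series ran down from 100 µM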
* hit, by the source's call; u = inconclusive; x = not tested or not shown; + = active, no number; & = joins results of further samples. Hits appear at their usual frequency; 2.1% or so of the library scored in one or more.

SMILES	HNF4A DNA FP	UCH37 inh	Beta2AR agonist	Bfl-1 A1 inh	LANA-H2A inh	E coli growth	Vif A3G
C=C(C)CSc1nc2sc3c(c2c(=O)n1-c1ccc(OC)cc1)CCN(C)C3	x	-0.2	x	0.2	1.5	0.62	x
CCC(=O)NCCNC(=O)c1c(SC)nsc1SC	-2.9	-6.1	0	-1.3	7.2	0.73	4%
CC1=CC2=NC(=O)CC(C)(C(=O)N(CC(=O)NC3CCCC3)c3ccccc3C)N2C=C1 (stereo not given)	3.3	-142	2	1.0	11*	0.69	x
CCOC(=O)C1(Cc2ccc(OC)cc2)CCN(C(=O)Cc2cccnc2)CC1	-0.5	0.0	2	0.7	0.8	0.65	87%
Cc1ccc(C(=O)OCC(=O)N2CCCCCC2)c(O)c1	1.0	1.2	4	-0.4	2.5	0.65	x
CC(NC(=O)c1ccc(F)cc1F)C1CC2CCC1C2 (stereo not given)	0.7	3.8	2	0.1	-2.6	0.67	x
Cc1ccc(-c2nnc(Nc3ccccc3)c3ccccc23)cc1S(=O)(=O)NCC1CCCO1 (stereo not given)	-0.4	-6.7	-7	-0.6	-1.8	0.71	-11%
CCN(CC)S(=O)(=O)c1ccc(N=N/C(C(C)=O)=C(/C)O)cc1	2.8	5.7	7	-0.8	1.0	0.74	-4%
O=C(Nc1ccc(S(=O)(=O)Nc2ccccn2)cc1)c1cccc([N+](=O)[O-])c1	-2.6	-2.2	-3	0.5	-0.4	0.72	0%
Cc1ccccc1C(=O)N1CCN(c2ccc(NC(=S)NC(=O)c3cccs3)cc2)CC1	2.6	5.2	-1	0.1	-2.4	0.68	-5%
CNc1ccccc1C(=O)OCC(C)=O	-0.2	-85	-4	-0.1	-0.6	x	2%
CN(C)CCNC(=O)CNC(=S)N(Cc1ccccc1)Cc1ccccc1F	-0.4	2.1	1	-0.9	-5.5	0.71	x
O=C(NCCCN1CCCC1=O)c1cccc(S(=O)(=O)Nc2ccc(F)cc2)c1	-0.8	3.0	-5	0.7	0.1	0.67	4%
COC(=O)[C@H](C)NC(=O)/C=C/c1ccc(OC)cc1	-3.5	2.6	-3	-3.2	-4.0	x	5%
C=CCNC(=S)NNc1nc2c(c(=O)[nH]1)C1(CCCC1)Cc1ccccc1-2	3.8	-18	-5	0.3	3.3	0.7	-5%
CC(=O)c1cccc(NC(=O)c2cnccn2)c1	3.0	2.6	-2	0.3	-2.2	0.68	-3%
C=CCn1c(N2CCCC2)nc2c1c(=O)[nH]c(=O)n2C	3.9	2.7	3	1.3	-3.7	0.71	-2%
c1ccc(COc2cccc(CN3CCN(c4ccccn4)CC3)c2)cc1	-1.0	1.1	0	0.6	2.4	0.65	24%
CCC(=O)c1c[nH]c(C(=O)N2CCN(c3ccccc3)CC2)c1	-1.8	0.8	-4	-0.2	-6.2	0.7	x
O=C(CN1CCOCC1)NNc1nc(-c2ccccc2)c2cc(Br)ccc2n1	-4.0	4.4	13	1.3	6.6	0.69	-6%
Cc1cccc(Nc2nc(C)nc3c2oc2ccccc23)c1	0.8	-59	13	0.4	-0.1	0.67	-9%
CN(C)CC(C)(C)CNC(=S)NCc1ccc2c(c1)OCO2	0.3	x	6	1.0	-1.9	x	-4%
Cc1cc(C(=O)Cn2nnc(-c3ccc(Cl)cc3)n2)c(C)n1CC1CCCO1 (stereo not given)	-0.5	-1.8	4	-0.3	0.2	0.7	2%&11%
Cc1ccc(S(=O)(=O)Nc2cc(Cl)ccc2-n2cncn2)cc1	0.0	3.2	5	-0.5	5.2	0.7	x
C=CC[C@@H](CC(=O)NCCO)C(=O)N[C@H](COC(=O)[C@@H](CC=C)Cc1ccc(F)cc1)Cc1c[nH]c2ccccc12	-2.2	-1.2	-1	-0.9	+	0.72	4%

Copied from the list.
`C=CCn1c(N2CCCC2)nc2c1c(=O)[nH]c(=O)n2C` | E coli growth = 0.71
`Cc1ccc(S(=O)(=O)Nc2cc(Cl)ccc2-n2cncn2)cc1` | UCH37 inh = 3.2
`CCC(=O)NCCNC(=O)c1c(SC)nsc1SC` | Beta2AR agonist = 0
`COC(=O)[C@H](C)NC(=O)/C=C/c1ccc(OC)cc1` | LANA-H2A inh = -4.0

Other entries follow:
SMILES	HNF4A DNA FP	UCH37 inh	Beta2AR agonist	Bfl-1 A1 inh	LANA-H2A inh	E coli growth	Vif A3G
COc1ccc(C(C(=O)NC2CCCC2)N(Cc2ccccc2)C(=O)c2snc(C(N)=O)c2N)cc1OC (stereo not given)	0.6	x	7	-0.5	0.8	x	6%
Cc1cccc(N2N=C(C(=O)Nc3nc(C)cs3)CCC2=O)c1	-1.5	5.9	-4	-1.0	-2.8	0.71	u
CCOc1cc2[nH]c(=S)n(CC3CCCN3CC)c(=O)c2cc1OCC (stereo not given)	2.0	2.8	x	0.8	2.8	0.68	18%
CCC(C)C(NC(=O)C1CCC(C)CC1)C(=O)NCc1cccnc1 (stereo not given)	2.6	0.1	-3	0.8	-2.3	0.74	0%
O=C(NCCc1ccc(Cl)cc1)C1CCCN1C(=O)Nc1ccc(F)cc1 (stereo not given)	-3.8	-1.4	1	0.6	4.0	0.7	-5%
COc1ccccc1C(CNC(=O)C(CCSC)NC(=O)c1ccccc1Cl)N1CCCC1 (stereo not given)	4.3	2.9	-4	x	x	0.69	-1%
CC(=O)Nc1cccc(C(=O)NNC(=O)c2n[nH]c(=O)c3ccccc23)c1	-0.4	x	-1	1.4	3.1	x	-14%
CC(C)(C)n1nnnc1C(c1cccc(C(F)(F)F)c1)N1CCOCC1 (stereo not given)	1.8	3.8	1	-0.5	-1.8	0.68	3%
Cc1occc1-c1nnc(SCC(=O)NC2CC2)n1C	0.1	1.1	-1	0.5	-0.4	0.66	3%
COCCn1cnnc1SCC(=O)Nc1cccc(S(=O)(=O)N(C)c2ccccc2)c1	-3.1	0.6	4	0.2	0.0	0.67	-1%
COc1ccc(-c2nnn(CC(=O)NC3CCCc4ccccc43)n2)cc1OC (stereo not given)	-2.3	0.6	-5	0.1	-1.7	0.73	x
Cc1cc(Cl)c(OCCCCN2CCOCC2)c(Br)c1	-1.7	2.4	-3	0.2	1.9	0.68	-6%
CNC(=O)c1cc(NC(=O)CCn2nc(-c3ccccc3)c3ccccc3c2=O)ccc1OC	0.2	2.2	4	0.1	6.0	0.73	-6%
CCN(CC)S(=O)(=O)c1ccc(NC(=O)Cc2cccs2)cc1	-2.8	0.9	0	-0.1	0.8	0.66	25%
O=C(COC(=O)/C=C/c1ccc(S(=O)(=O)N2CCOCC2)cc1)Nc1ccc(F)c(F)c1F	-0.1	-0.2	2	0.0	-0.7	0.66	-13%
COc1ccc(OC)c(NC(=O)c2ccc(NC(C)=O)cc2)c1	-0.2	2.0	-12	-0.3	-2.7	0.71	21%
COc1ccc(N2CCN(c3oc(Cc4ccccc4)nc3C#N)CC2)cc1	0.4	3.1	0	-0.6	1.7	0.7	2%
CCCOc1ccc(C(C)=O)cc1CC(C(=O)OCC)C(=O)OCC	5.0	0.4	6	0.8	1.5	0.71	-6%
CCCS(=O)(=O)C/C(N)=N/OC(=O)c1ccc(Cl)cc1	2.0	-0.9	-1	u	3.5	0.66	11%
O=C(NNC(=O)c1cc(O)c(O)c(O)c1)NC1CCCCC1	-5.0	1.5	-9	-0.2	-1.7	0.68	31%
O=C(O)C1C2CCC(C2)C1C(=O)Nc1ccccc1 (stereo not given)	4.4	2.7	-4	-2.7	3.2	0.69	x
C=CC(COCc1ccccc1)N(Cc1ccc(OC)cc1)S(=O)(=O)c1ccccc1Br (stereo not given)	3.2	-0.7	7	0.1	-1.2	0.69	x
O=C(COc1ccccc1)NCC(=O)N/N=C/c1ccccc1	-0.9	x	6	0.3	3.1	x	x
COc1c(/C=N/NC(N)=S)c(C)nn1-c1ccccc1	0.3	x	3	0.1	11	x	7%
O=[N+]([O-])c1cc([N+](=O)[O-])c(Oc2c(F)cc(F)cc2F)cc1NN1CCCCC1	-4.6	0.3	9	u	0.3	0.72	x
(further entries)
SMILES	HNF4A DNA FP	UCH37 inh	Beta2AR agonist	Bfl-1 A1 inh	LANA-H2A inh	E coli growth	Vif A3G
CCCNC(=O)C(Cc1cccc(OC)c1)NC(=O)c1ccc(C(C)(C)C)cc1 (stereo not given)	-0.8	4.9	11	0.4	1.3	0.68	x
COCCN1C(=O)N[C@@H](c2cccc(F)c2)C(C(C)=O)=C1C	-1.7	1.9	-3	0.8	-0.7	x	x
COc1ccc(NC(=O)C(=O)N/N=C/c2cc(C)n(-c3cccc(Cl)c3Cl)c2C)c(OC)c1	3.4	x	5	0.2	-12	x	-2%
CCc1oc2c(C)c(O)ccc2c(=O)c1-c1ccc2ccccc2n1	0.1	2.0	-2	-2.3	4.0	0.74	-2%
COCCCN1C2=C(C(=O)CC(C)(C)C2)C(c2ccc(O)c(OC)c2)C2=C1CC(C)(C)CC2=O	0.9	2.2	1	0.1	-1.7	0.65	x
Cc1ccc(-n2cccn2)c(CN2CCCC(C(=O)c3ccc4c(c3)OCO4)C2)c1 (stereo not given)	0.2	-2.8	2	-0.1	5.0	0.65	18%
COc1ccccc1N1CCN(CC(=O)Nc2nccs2)CC1	0.0	1.6	-10	0.1	2.8	0.69	1%
CCC(=O)Nc1ccc(C(=O)NNC(=O)COc2cccc(C)c2)cc1	-1.3	4.1	11	0.2	-6.8	0.74	-3%
O=c1c2ccccc2nc(/C=C/c2cc(Br)ccc2O)n1CCCO	-1.1	-2.8	1	0.5	2.2	0.67	4%
COc1ccc(C(CNC(=O)COc2ccc(F)cc2Br)N2CCCC2)cc1 (stereo not given)	2.6	4.4	-23	-0.7	-3.3	0.72	10%
Cc1ccc(-n2ncc3c2CC(C)(C)CC3NC(=O)c2cc[n+]([O-])cc2)cc1 (stereo not given)	1.7	1.1	4	-0.3	-6.7	0.67	x
COc1ccc(CCN2C(=O)CSC2=Nc2ccc(C)cc2C)cc1OC	5.1	1.7	1	0.1	4.6	0.7	-3%
O=C(CSc1nc2ccccc2o1)N/N=C/c1ccc(O)c(O)c1	-16	x	-1	-0.5	5.2	x	29%
O=C(NCc1ccccn1)c1ccc(OC2CCN(Cc3ccc(F)cc3F)CC2)cc1	-0.8	1.1	-23	-0.6	-0.5	0.67	x
CC(OC(=O)c1ccccc1CCc1ccccc1)C(N)=O (stereo not given)	-0.7	5.3	3	0.0	-3.4	0.68	x
COCCCNc1oc(-c2cccs2)nc1S(=O)(=O)c1ccc(C)cc1	-1.8	-12	2	-0.2	8.1	0.72	22%
CCOc1ccc(/C=C/C(=O)N(CC)CC(=O)NCc2cccs2)cc1OC	-4.6	-15	-11	0.0	-2.4	0.67	x

Looked up by structure from above:
SMILES	HNF4A DNA FP	UCH37 inh	Beta2AR agonist	Bfl-1 A1 inh	LANA-H2A inh	E coli growth	Vif A3G
O=C(NCc1ccccn1)c1ccc(OC2CCN(Cc3ccc(F)cc3F)CC2)cc1	-0.8	1.1	-23	-0.6	-0.5	0.67	x
CCc1oc2c(C)c(O)ccc2c(=O)c1-c1ccc2ccccc2n1	0.1	2.0	-2	-2.3	4.0	0.74	-2%
COCCN1C(=O)N[C@@H](c2cccc(F)c2)C(C(C)=O)=C1C	-1.7	1.9	-3	0.8	-0.7	x	x
